BmaI1 enzyme: BmaI1 acyl-homoserine lactone synthase inhibition – biochemical, fluorescence intensity, with counterscreen (AID 720554). BmaI1 enzyme assay, fluorescence intensity; hits give high values; test concentration not given here; a few actives read low; strong numbers were not always called active. inhibition, %. 12,000 tested, 0.4% active;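 active = both replicates within 2 robust z-scores of the inhibited control and a quiet counterscreen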;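 also: 0% = uninhibited enzyme and 100% = inhibited control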
BmaI1 enzyme counterscreen: also measured in BmaI1 enzyme; calls as there; inhibition, %; measured here: counterscreen; design of the counterscreen not given here;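 first of two replicates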
The depositor's hits bear a star. Only part of the results is shown; the hit share may differ from the screen's.

SMILES	BmaI1 enzyme	BmaI1 enzyme counterscreen
O=C1N(c2ccc3c(c2)OCO3)C(c2ccc3c(c2)OCO3)C1(F)F (centres undefined)	6	0
Cc1ccc(-n2c(C)c(Cc3ccccc3)[nH]c2=O)cc1	22	10
Cc1ccc(NC(=O)/C(C#N)=N/Nc2ccc(S(=O)(=O)N3CCOCC3)cc2)c(C)c1	22	14
CN(C)S(=O)(=O)c1ccc(N2CCOCC2)c(C(=O)Nc2ccc3c(c2)OCCO3)c1	-2	-6
O=C1CC(C(=O)N2CCN(C(=O)C3CC3)CC2)CN1Cc1ccco1 (centres undefined)	12	7
O=C(COCC(=O)N1CCN(c2ccccc2)CC1)N1CCN(c2ccccc2)CC1	16	15
COc1ccc(NC(C)=O)cc1NC(C)C(=O)N1CCCc2ccccc21 (centres undefined)	19	0
COc1ccc(CCN2Cc3nc4ccccc4c(=O)n3CC2=O)cc1	10	8
CCOc1ccc(-n2c(SC(C)C(=O)NC(N)=O)nc3ccccc32)cc1 (centres undefined)	6	-4
CC(C)(C)C(=O)CSc1nc(N)cc(N)n1	21	8
O=C1CCCN1C(=O)CSc1nc2cc(Cl)ccc2s1	7	-6
CCN(CCCN1C(=O)CSC1c1ccc(OC(F)F)c(OC)c1)c1ccccc1 (centres undefined)	18	4
CN1CCc2cc(Cl)c(O)cc2[C@@H](c2ccccc2)C1	6	10
O=C(OCC(=O)c1c[nH]c2ccccc12)c1cncc(Br)c1	12	-1
O=C(CCc1c[nH]c2ccccc12)N1CCN(S(=O)(=O)c2ccc3c(c2)OCCO3)CC1	10	6
CN(C(=O)Cn1nnc(-c2cccs2)n1)C1CCCc2ccccc21 (centres undefined)	12	-1
CN(C)/N=C/C=C1\CC/C(=C\c2ccccc2)C1=O	16	12
Cc1cnc(C(=O)OCC(=O)N(C)c2ccccc2)cn1	10	8
C=CCn1c(SCC(=O)NCc2ccc3c(c2)OCO3)nnc1-c1ccccc1F	9	8
Cc1cc(C)n(-c2ccc(C(=O)OCC(=O)Nc3ccccc3)cc2)n1	19	13

In another format: two of the compounds above.
| molecule | BmaI1 enzyme | BmaI1 enzyme counterscreen |
| --- | --- | --- |
| COc1ccc(CCN2Cc3nc4ccccc4c(=O)n3CC2=O)cc1 | 10 | 8 |
| CCOc1ccc(-n2c(SC(C)C(=O)NC(N)=O)nc3ccccc32)cc1 (centres undefined) | 6 | -4 |

Returning to the listing, starting 3 compounds before the break.
SMILES	BmaI1 enzyme	BmaI1 enzyme counterscreen
Cc1cnc(C(=O)OCC(=O)N(C)c2ccccc2)cn1	10	8
C=CCn1c(SCC(=O)NCc2ccc3c(c2)OCO3)nnc1-c1ccccc1F	9	8
Cc1cc(C)n(-c2ccc(C(=O)OCC(=O)Nc3ccccc3)cc2)n1	19	13
O=C(COC(=O)C1(c2ccccc2)CC1)N1CCN(c2ccc(F)cc2)CC1	-4	-4
O=S(=O)(/C=C/c1ccccc1)N1CCN(CC(O)COCc2ccccc2)CC1 (centres undefined)	6	2
O=C(COC(=O)c1ccc2c(c1)OCCO2)c1ccccc1	2	1
Cn1nc(Oc2ccc(-c3ccccc3)cc2)c(=O)n(C)c1=O	32	6
CCOC(=O)Nc1ccc2c(CN(C)Cc3ccc(F)cc3)cc(=O)oc2c1	16	11
CC(NC(=O)CCn1[nH]c(=O)ccc1=O)C12CC3CC(CC(C3)C1)C2 (centres undefined)	16	8
Cc1ccc(-c2nnn(C3CCOC3=O)n2)cc1 (centres undefined)	12	5
N#CCSc1nnc(-c2ccc(Cl)cc2)n1Cc1ccco1	16	-2
CN(Cc1cccc(F)c1)C(=O)C1CC(=O)N(Cc2ccco2)C1 (centres undefined)	8	6
O=C(CCc1ccccc1)NC1CCS(=O)(=O)C1 (centres undefined)	-15	-13
Cc1cc(C)c(NC(=O)COC(=O)C2CCCCC2)c(C)c1	4	2
FC(F)(F)c1nc(NNC(=S)NCC2CCCO2)c2ccccc2n1 (centres undefined)	100*	25*
CCC(=O)Nc1ccc(C(=O)COc2ccc(OC)cc2)cc1	24	12
CC(=O)NCCC(=O)Nc1cccc(C#N)c1	11	0
Cc1ccc(NC(=O)CSC(C)C(=O)N2CCC(C)CC2)cc1 (centres undefined)	2	-2
CC(OC(=O)Cn1cnc2ccccc2c1=O)C(=O)NCc1ccccc1 (centres undefined)	22	13
Cc1noc(C)c1COc1cc2ccccc2cc1C(=O)O	0	6
COCc1c(C(=O)OCc2cc(Cl)cc3c2OCOC3)oc2ccccc12	0	0
CCc1nnc(NC(=O)CCCSc2ccccc2)s1	1	2
C=CCn1c(COc2cccc(C)c2)nnc1SCC(=O)NC(C)(C#N)C(C)C (centres undefined)	16	8

Some of these compounds in order of length of the SMILES, rising.
SMILES	BmaI1 enzyme	BmaI1 enzyme counterscreen
CN1CCc2cc(Cl)c(O)cc2[C@@H](c2ccccc2)C1	6	10
CN(C(=O)Cn1nnc(-c2cccs2)n1)C1CCCc2ccccc21 (centres undefined)	12	-1
CC(OC(=O)Cn1cnc2ccccc2c1=O)C(=O)NCc1ccccc1 (centres undefined)	22	13
O=C1CC(C(=O)N2CCN(C(=O)C3CC3)CC2)CN1Cc1ccco1 (centres undefined)	12	7
CCOc1ccc(-n2c(SC(C)C(=O)NC(N)=O)nc3ccccc32)cc1 (centres undefined)	6	-4

(next part)
SMILES	BmaI1 enzyme	BmaI1 enzyme counterscreen
Cc1sc2c(c1C)c(=O)nc1n2Cc2ccccc2-1	15	4
CCc1ccc(Nc2nnc(SCC(=O)NC(=O)c3cccn3C)s2)cc1	22	10
CNC(=O)CSc1nnc(-c2ccc3c(c2)OCO3)o1	6	-1
Cc1ccc(S(=O)(=O)C(F)F)cc1S(=O)(=O)C(F)F	10	3
CCCN(C(=O)CSc1nnc(-c2ccco2)o1)C1=CCCCC1	22	10
O=C(Nc1nn2cnnc2s1)c1ccncc1	10	4
COc1cc(C)c(COc2ncnc3ccccc23)cc1OC	4	2
COc1ccc(SCC(=O)c2cc(C)n(C3CC3)c2C)cc1	20	14
COc1cc(/C=C/C(=O)N2CCC(c3nc4ccccc4o3)CC2)cc2c1OCCO2	44	2
COC(=O)c1cc(COC(=O)CNC(=O)c2ccc(Br)cc2)oc1C	8	8
C=CS(=O)(=O)C(C)CC(N)=O (centres undefined)	18	7
Cc1ccc(O)c(C(=O)c2cnc3[nH][nH]c(=O)c3c2)c1	62	52
COCCN(Cc1ccccc1)C(=O)C1CC(=O)N(c2cc(C)ccc2OC)C1 (centres undefined)	10	0
CC(C)NC(=O)NC(=O)CN1c2cccc3cccc(c23)S1(=O)=O	-10	-2
CO[C@H]1C=CO[C@@]2(C)Oc3c(C)c(O)c4c(O)c(c(C=NN5CCN(C6CCCC6)CC5)c(O)c4c3C2=O)NC(=O)C(C)=CC=C[C@H](C)[C@H](O)[C@@H](C)[C@@H](O)[C@@H](C)[C@H](OC(C)=O)[C@@H]1C	0	3
CNS(=O)(=O)c1ccc(C(=O)NCC(=O)O)cc1	6	5
CC(C)(C(=O)O)c1ccc(C(O)CCCN2CCC(C(O)(c3ccccc3)c3ccccc3)CC2)cc1 (centres undefined)	2	12
COc1ccc2c3c1O[C@H]1C[C@@H](O)C=C[C@@]31CCN(C)C2	-2	-1
COc1ccc(N2C(=O)/C(=C\c3ccco3)N=C2SCC(=O)c2c(N)n(C)c(=O)n(C)c2=O)cc1Cl	13	8
O=C(Cn1ncc(Cl)c(Cl)c1=O)NCCc1ccc(F)cc1	18	10

Profiles, looked up by structure. Values in the order: BmaI1 enzyme, BmaI1 enzyme counterscreen
CNS(=O)(=O)c1ccc(C(=O)NCC(=O)O)cc1 as listed: 6, 5
COc1cc(C)c(COc2ncnc3ccccc23)cc1OC as listed: 4, 2
COc1ccc(N2C(=O)/C(=C\c3ccco3)N=C2SCC(=O)c2c(N)n(C)c(=O)n(C)c2=O)cc1Cl as listed: 13, 8
COCCN(Cc1ccccc1)C(=O)C1CC(=O)N(c2cc(C)ccc2OC)C1 (centres undefined) as listed: 10, 0
CCc1ccc(Nc2nnc(SCC(=O)NC(=O)c3cccn3C)s2)cc1 as listed: 22, 10

Remaining list, next part:
SMILES	BmaI1 enzyme	BmaI1 enzyme counterscreen
CC(C)(C)OC(=O)CSc1nc2ccccc2c(=O)[nH]1	12	17
CCn1c(SCC(=O)OCc2c(C(=O)OC)sc(N)c2C(=O)OC)nnc1-c1cccs1	6	4
NC(=O)c1ccccc1OCc1ccc(F)cc1Cl	8	16
Cc1cc(C)c(NC(=O)COC(=O)c2nccnc2N)c(Cl)c1	-12	-10
CCc1cc2c(=O)n(Cc3ccco3)c(SCC(=O)Nc3ccc(F)cc3F)nc2s1	17	11
CCOC(=O)n1cc(C(=O)c2ccccc2O)cn1	16	11
CCOC(=O)c1c(NC(=O)CSc2nnc(N)s2)sc2c1CCCC2	12	-4
N#Cc1c(F)cccc1N1CCN(c2ccc(O)cc2)CC1	96	44
O=C(CN1NS(=O)(=O)c2ccccc2C1=O)Nc1ccccc1OC(F)F	6	8
COc1cc2nc(CN3CCN(S(=O)(=O)c4ccc5ccccc5c4)CC3)[nH]c(=O)c2cc1OC	0	0
Cc1ccc(C)c(C(=O)CN2C(=O)c3ccccc3C2=O)c1	4	9
Cc1nn(-c2ccc(F)cc2)c2sc(C(=O)OCC(=O)N(C)C3CCS(=O)(=O)C3)cc12 (centres undefined)	10	12
O=C(CN1CCN(S(=O)(=O)c2ccc3c(c2)OCCO3)CC1)N(Cc1ccccc1)Cc1ccccc1	13	8
CCn1nnc2cc(C(=O)Nc3ccc(N4CCCC4)cc3)ccc21	36	12
O=c1c2c(-c3cccs3)csc2ncn1/N=C/c1ccccc1F	0	11
CC(=O)Nc1cccc(OCC(=O)N2CC(C)CC(C)C2)c1 (centres undefined)	18	12
CN(C(=O)Cn1c(=O)cnc2ccccc21)C1CCS(=O)(=O)C1 (centres undefined)	4	5
CCn1c(C)nc2cc(C#N)ccc21	8	6
CC(OC(=O)c1ccc(-n2cnnn2)cc1)C(=O)NC1CCCc2ccccc21 (centres undefined)	10	2
O=C(OCc1cc(=O)n2c(n1)sc1ccccc12)C1=NN(c2ccccc2)C(=O)CC1	-2	-4
CCCS(=O)(=O)Nc1cc(S(=O)(=O)CC)ccc1O	48	14
CCOC(=O)c1oc2ccccc2c1CN1CC(C)OC(C)C1 (centres undefined)	-2	4
COc1ccccc1NC(=O)NCCC(=O)N1CCCC1	5	3
CC1CCCCC1NC(=O)c1cn(-c2ccccc2)nc1-c1cccs1 (centres undefined)	2	10
CCNC(=O)COc1ccc(-c2nnco2)cc1	-8	-10
CCSc1nnc(SC/C(O)=C(\C(=O)OC)c2nc3ccccc3[nH]2)s1	10	9
O=C(OCC(=O)N1CCN(c2ccccc2)CC1)c1ccc(-n2cnnn2)cc1	11	1
Cn1nnnc1SCC(=O)NC(=O)Nc1ccc2c(c1)OCCO2	16	6
Cc1nn(-c2ccccc2)c(C)c1/C=C/C(=O)OCC(=O)c1cccs1	0	-3
O=C1NCCNC1Cc1ccc2ccccc2n1 (centres undefined)	16	8
Cc1nn(CC(C)C)c(Cl)c1C(=O)N1CCCc2ccccc21	11	4
Cc1cccc2sc(NC(=O)CN3CSCC3=O)nc12	7	2
N[C@@H](C(=O)N[C@@H]1C(=O)N2C(C(=O)O)=C(Cl)CS[C@H]12)c1ccccc1	5	4
c1ccc(-c2ccc(C(c3ccccc3)n3ccnc3)cc2)cc1 (centres undefined)	4	10
CCn1c(=O)c(=O)[nH]c2cc(C(=O)Nc3cc(Cl)c(N)c(Cl)c3)ccc21	20	16
Cn1c(COc2ccc(Cl)cc2)nnc1SCCN1C(=O)c2ccccc2S1(=O)=O	12	6
COCCn1c(N)c(N(Cc2ccccc2)C(=O)C2CC3C=CC2C3)c(=O)[nH]c1=O (centres undefined)	6	2
Cc1ccc(-c2csc(C3=C(O)CN(C4CCCC4)C3=N)n2)cc1	13	19

Source: PubChem (ICCB-Longwood Screening Facility, Harvard Medical School)
